KCNQ2 block: KCNQ2 channel blockers in CHO-K1 cells – cell-based, FluxOR thallium flux, B-score, primary screen (AID 2156). O88943. 20 min; hits give low values; only compounds with negative scores are shown here; some inactives read as strong as hits. B-score at 10 µM. 310,000 compounds, 1.1% hits;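 active means fluorescence ratio B-score at most minus 3 library SDs, with starting brightness B-score within 2 library SDs, cut at about -5.5 in these data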
Target sequence (O88943 whole entry, looked up): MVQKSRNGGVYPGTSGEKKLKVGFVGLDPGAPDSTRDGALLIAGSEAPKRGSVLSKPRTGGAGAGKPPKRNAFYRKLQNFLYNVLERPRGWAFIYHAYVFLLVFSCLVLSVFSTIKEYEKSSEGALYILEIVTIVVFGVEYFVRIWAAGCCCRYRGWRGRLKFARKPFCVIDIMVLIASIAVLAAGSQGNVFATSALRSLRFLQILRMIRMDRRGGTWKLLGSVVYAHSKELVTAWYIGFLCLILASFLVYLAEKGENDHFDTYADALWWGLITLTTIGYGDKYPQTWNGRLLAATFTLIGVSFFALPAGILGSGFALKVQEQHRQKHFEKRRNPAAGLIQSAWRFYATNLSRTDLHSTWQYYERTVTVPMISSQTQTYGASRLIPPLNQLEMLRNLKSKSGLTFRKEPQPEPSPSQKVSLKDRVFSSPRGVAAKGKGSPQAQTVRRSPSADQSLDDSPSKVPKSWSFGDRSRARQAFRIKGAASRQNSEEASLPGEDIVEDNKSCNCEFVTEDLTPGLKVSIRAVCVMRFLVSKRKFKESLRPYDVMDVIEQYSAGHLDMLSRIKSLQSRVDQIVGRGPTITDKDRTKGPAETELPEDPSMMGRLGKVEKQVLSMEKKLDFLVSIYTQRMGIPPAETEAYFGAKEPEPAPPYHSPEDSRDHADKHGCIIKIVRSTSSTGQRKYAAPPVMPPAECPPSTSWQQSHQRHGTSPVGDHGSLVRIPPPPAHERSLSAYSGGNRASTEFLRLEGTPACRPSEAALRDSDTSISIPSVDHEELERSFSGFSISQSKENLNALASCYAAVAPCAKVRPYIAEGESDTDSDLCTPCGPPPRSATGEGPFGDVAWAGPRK
KCNQ2 block baseline: further read-out of KCNQ2 block, marked with its call; B-score; measured here: initial fluorescence intensity artifact check;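 brightness before thallium and not channel activity; 0 = typical well and far values either way flag optical interference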
* hit, by the source's call; i = inactive.

Below each compound: KCNQ2 block	KCNQ2 block baseline
> O=C(c1nc2ccccn2c1CN1CCCC(O)C1)N1CCN(C2CCCCC2)CC1 (configuration not stated)
 : i	1.2
> OCC1(O)OC[C@@H](O)[C@H]1O (some centres not stated)
 : i	1.2
> CC1(C)CC(NCc2ccccc2)CCO1 (configuration not stated)
 : i	-1.7
> CCOC(=O)c1sc2cc([N+](=O)[O-])cc(SCC(C)C)c2c1N
 : i	1.6
> O=CNCCCc1nc2ccccc2n1Cc1cccc2ccccc12
 : i	-0.69
> CCCCN(CCCC)CC(O)COc1ccc(Br)cc1 (configuration not stated)
 : i	0.05
> CCCCCC(=O)Nc1cc2[nH]c(=O)cc(COC)c2cc1C
 : i	1.3
> c1ccc(-c2nc(C3CCCCC3)no2)cc1
 : i	0.49
> COc1ccc(NC(=O)C(=O)NCc2ccncc2)c(OC)c1
 : i	1.4
> COc1ccc(-c2[nH]ncc2CN2CCCCCCC2)c(OC)c1
 : i	-0.07
> O=C(CSc1nnc(-c2ccccc2)o1)NC1CCCC1
 : i	-0.02
> Cn1c(SCCOc2ccc(Cl)cc2)nnc1-c1ccncc1
 : i	0.17
> CC(=O)C1=C(O)CC(C)(C)CC1=NCc1nc2ccccc2[nH]1
 : i	0.84
> O=C(Nc1cccc(Cl)c1)C1CCN(C(=O)c2cccs2)CC1
 : i	-0.76
> O=C(NC(=S)Nc1cc(C(F)(F)F)ccc1N1CCOCC1)c1sc2ccccc2c1Cl
 : i	0.09
> O=C(c1cc(=O)c2ccccc2o1)N1CCCc2ccccc21
 : i	-0.06
> COc1ccc(CCNC(=O)c2cnc3scc(C)n3c2=O)cc1OC
 : i	0.23
> Cc1ccc(/C=N/n2c(C)nc3ccccc3c2=O)s1
 : i	-0.02
> CCCCNC(=O)C1CCN(C(=O)C2CCN(S(=O)(=O)c3ccc(C)cc3)CC2)CC1
 : i	0.01
> Cc1n[nH]c(=O)c2c(NC(=O)CSc3nc4ccccc4c(=O)n3CCCOC(C)C)oc(C)c12
 : i	0.86
> COc1ccc(OC(=O)c2cnn(-c3ccccc3)c2C)cc1
 : i	2.5
> COCC1CCCN(C(=O)c2ccc3oc(CCCc4ccccc4)nc3c2)C1 (configuration not stated)
 : i	-0.1
> COc1ccc(CCNC(=O)c2ccccc2)cc1
 : i	-0.07
> CCc1cccc(NC(=S)N(CCCN2CCOCC2)C(C)c2cc3cccc(OC)c3o2)c1 (configuration not stated)
 : i	0.41
> Cc1cc(C)cc(C(=O)Nc2ccc(N3CCCC3)cc2)c1
 : i	1.1
> COC(=O)C1=CN(Cc2cccs2)C=C(C(=O)OC)C1c1ccc(OC)cc1OC
 : i	0.04
> Fc1ccccc1-c1nc(N2CCCCC2)c2ccccc2n1
 : i	0.53
> O=C(Nc1ccc2c(c1)OCCO2)C1CCN(c2ncccn2)CC1
 : i	-0.2
> O=C(c1ccc(C#CC2(O)CCCCC2)cc1)N1CCN(C(c2ccccc2)c2ccccc2)CC1
 : i	-0.74
> Cc1ccc(NC(=O)c2cccc(S(=O)(=O)N3CCN(c4ccc(F)cc4)CC3)c2)nc1
 : i	-0.51
> CCC(C)NC(=O)c1cc(-c2ccc3c(c2)OCO3)on1 (configuration not stated)
 : i	-0.18
> C=CCn1cc(CN2CCC(C(=O)Nc3cccc(-c4cccc(Cl)c4)c3)CC2)c(C)n1
 : i	0.53
> CCOc1ccc(C2C(C(=O)O)CCC(=O)N2C2CCCCC2)cc1 (configuration not stated)
 : i	-0.56
> CCOC(=O)CCn1c2nc(C)cc(C)c2c(=O)n1-c1ccccc1
 : i	1.6
> C=C1CC2C(=O)N(Cc3ccccc3)C(C(=O)OCC)(C(=O)OCC)C1N2C(=O)OC(C)(C)C (configuration not stated)
 : i	-0.35
> CCCc1nnc(-c2ccc(OC)cc2)o1
 : i	0.02
> Cc1nc(N2C(=O)C(=O)/C(=C(/O)c3ccccc3)C2c2ccco2)sc1C (configuration not stated)
 : i	-0.13
> CS(=O)(=O)c1ccc(-c2cc(Br)sc2-c2ccc(F)cc2)cc1
 : i	-0.42
> CN1CCc2c(n(CC(O)CN3CCN(CCO)CC3)c3ccccc23)C1=O (configuration not stated)
 : i	0.07
> CC(=O)N1[C@H](Cc2ccccc2)C=C[C@]1(C)C(=O)NCc1ccc(C)o1
 : i	2.4
> NC(=O)c1ccsc1NC(=O)C1CC1
 : i	2
> Cc1c(NC(=O)c2cc(-c3ccc(Cl)s3)nc3ccccc23)c(=O)n(-c2ccccc2)n1C
 : i	0.01
> CC(=O)c1ccc(NS(=O)(=O)c2cccc(C(=O)Nc3ccccc3C(=O)O)c2)cc1
 : i	-0.04
> O=C(Nc1nnc(C2CC2)s1)c1cc(S(=O)(=O)N2CCCCC2)ccc1N1CCOCC1
 : i	-0.66
> CCn1c(SCc2nnc(-c3ccccc3)o2)nnc1-c1ccc(S(=O)(=O)N2CCCC2)cc1
 : i	1.8
> FC(F)(F)c1ccc(Oc2ccc(Cl)cc2Br)nc1
 : i	-0.84
> CC(=O)c1ccc(NS(=O)(=O)c2ccc(N)cc2)cc1
 : i	-0.34
> CN(C)CCCNC(=O)CCc1ncc(C(F)(F)F)cc1Cl
 : i	0.85
> Cc1ccc(S(=O)(=O)n2c([N+](=O)[O-])cnc2C)cc1C
 : i	0.35
> CC(=O)NCCn1ccc2ccccc21
 : i	1.1
> O=C(Nc1ccccc1C(=O)NCc1cccnc1)c1ccc(Cl)cc1Cl
 : i	-0.01
> COCCCn1c(=O)c2ccccc2n(Cc2ccccc2)c1=O
 : i	-0.01
> CCNc1nc(NC#N)nc(SCC(=O)OCC)n1
 : i	-1
> COc1ccc(C2C(C(=O)NCCN3CCOCC3)c3ccccc3C(=O)N2C)cc1OC (configuration not stated)
 : i	2.5
> Cc1cc2c(cc1C)C(c1ccccc1OC(C)C)CC(=O)N2 (configuration not stated)
 : i	0.16
> COc1cc(Br)c(C(C)NC(=O)c2cccc(Br)c2)cc1OC (configuration not stated)
 : i	-0.22
> COc1cccc(C(=O)N2CCN(Cc3ccccn3)CC2)c1
 : i	2.9
> O=C(c1cc2ccccc2cc1O)N1CCN(c2ccccc2O)CC1
 : i	-0.88
> Cc1cc2oc(C(=O)N3CCN(CCc4ccccn4)CC3)c(C)c2cc1C
 : i	1.6
> O=C(/C=C/c1ccccc1Cl)NCCc1ccc(F)cc1
 : i	-0.67

Next results follow.
Below each compound: KCNQ2 block	KCNQ2 block baseline
> O=C(CCC(=O)N1CCOc2ccccc21)NCc1cccnc1
 : i	-0.08
> C=CCNc1sc(C(=O)c2ccc(Br)s2)c(N)c1C#N
 : i	-0.08
> Cc1ccc(C2NC(c3ccc(C)cc3)C(C)C(=NO)C2C)cc1 (configuration not stated)
 : i	0.37
> COc1ccc(NC(=O)C2CCCN(S(=O)(=O)c3ccc4c(c3)CC(C)N4C(C)=O)C2)cc1 (configuration not stated)
 : i	-0.96
> Cc1ccccc1C(=O)Nc1nnc(S(=O)(=O)N2CCCCCC2)s1
 : i	-0.36
> Cc1ccc(N(C)C(=O)N2CCN(S(=O)(=O)c3c(C)cc(C)cc3C)CC2)cc1
 : i	0.93
> CCC1(c2ccccc2)NC(=O)N(CC(=O)NCc2ccc(C)cc2)C1=O (configuration not stated)
 : i	-2.2
> CC(Nc1nc(-c2ccc(F)cc2)cs1)c1nc2cc(C(F)(F)F)ccc2n1CCOCCO (configuration not stated)
 : i	0.17
> COc1ccc(CNC(=O)c2nn(C)c3c2CS(=O)(=O)c2ccccc2-3)cc1
 : i	0.29
> CCOC(=O)c1c(NC(=S)Nc2ccccc2)sc2c1CCN(CC)C2
 : i	1.8
> COc1ccc(C(=O)N2CCN(Cc3ccccn3)CC2)cc1
 : i	-1.5
> CC(C)N(Cc1ccccc1)C(=O)CN1C(=O)COc2ccc(S(=O)(=O)NC3CCCC3)cc21
 : i	-0.22
> Cc1ccc(C)c(NC(=O)CSc2nccn2Cc2ccco2)c1
 : i	-1.4
> O=C(OCc1ccc(-c2ccccc2)cc1)c1cccc(O)c1
 : i	-2.4
> Cc1nn(C)cc1C(C(=O)NC1CCCCC1)N(Cc1ccccc1Cl)C(=O)c1cnccn1 (configuration not stated)
 : i	0.4
> COc1ccc(C(=O)Nc2ccccc2C(=O)Nc2ccccc2C(=O)O)cc1
 : i	-0.43
> CCCCCN1CC(=O)N2Cc3[nH]c4ccccc4c3C[C@H]2C1=O
 : i	0.01
> CCC1CCCCN1C(=O)CSc1nc(N)cc(N)n1 (configuration not stated)
 : i	0.36
> FC(F)(F)c1cc(Oc2ccccc2)ncc1-c1nnc(-c2ccccc2Cl)o1
 : i	-0.62
> COCCOC(=O)C1=C(C)N=c2s/c(=C\c3cccs3)c(=O)n2C1c1cccs1 (configuration not stated)
 : i	1.9
> COc1ccc(CNC(=O)CN(Cc2ccc(Cl)cc2)C(=O)c2csnn2)cc1
 : i	0.82
> CCc1ccc(NC(=O)N(CCN2CCOCC2)C2CCN(C(C)=O)CC2)cc1
 : i	1.8
> COc1ccc(C2c3ccc4ccccc4c3Oc3ncn(CCO)c(=N)c32)cc1 (configuration not stated)
 : i	-1.7
> COc1ccc(N2CCN(C(C)C(=O)N3CC(C)OC(C)C3)CC2)cc1 (configuration not stated)
 : i	-0.06
> Cc1c(C)c2cc(Cl)c(OCC(=O)NC3CC(C)(C)NC(C)(C)C3)cc2oc1=O
 : i	-1
> O=C(CSc1nnc(CNc2ccc(F)cc2)n1Cc1ccccc1)NCc1ccco1
 : i	-0.33
> CC(=O)c1ccc(OCC(=O)N(CCC2=CCCCC2)c2c(N)n(Cc3ccccc3)c(=O)[nH]c2=O)cc1
 : i	0.03
> Brc1ccc(-c2nc(N/N=C/c3cccnc3)c3ccccc3n2)cc1
 : i	-0.08
> Clc1cccc(Cl)c1CO/N=C/c1c(-c2ccccc2)nc2n1CCS2
 : -8.5*	-0.05*
> O=C(Cn1c(CC(=O)N2CCCC2)nc2ccccc21)NCc1ccccc1
 : i	-2
> CS(=O)(=O)c1ccc(C(=O)OCC(=O)NNC(=O)COc2ccc(Cl)cc2)cc1
 : i	1.7
> Cc1cccc2[nH]c3c(N4CC=C(c5ccc(F)cc5)CC4)ncnc3c12
 : i	-1
> O=C(CCc1nnc(Cc2c[nH]c3ccccc23)o1)NC1CCCC1
 : i	0.02
> C[C@H](NC(=O)c1nc[nH]c1C(=O)N[C@H](C)c1ccccc1)C(=O)OCc1ccccc1
 : i	-0.86
> Cn1c(=O)cc(SCC(=O)NCCN2CCN(c3ccccc3F)CC2)c2cc(Cl)ccc21
 : i	-1.7
> O=C(CCN1C(=O)COc2ccccc21)NCCCN1CCCC1
 : i	-1.1
> CC(=O)Nc1ccc(N=Cc2c(O)c(C(=O)Nc3ccccc3)cc3ccccc23)cc1
 : i	0.02
> CCn1c(CNc2ccc(F)cc2)nnc1SCCN1CCCCC1
 : i	0.25
> O=C(NCCCn1ccnc1)c1cc2ccccc2oc1=O
 : i	0.58
> O=C(CSc1nnc(-c2ccc(Cl)cc2Cl)n1C1CCCCC1)NC1CCS(=O)(=O)C1 (configuration not stated)
 : i	0.85
> CCOc1ccc(-n2c(O)c(/C=N/Nc3nc(C)cc(C)n3)c3ccccc3c2=O)cc1
 : i	-1.6
> CC(NC(=S)Nc1ccc(Cl)cc1)C(c1ccccc1)N1CCOCC1 (configuration not stated)
 : i	-3.1
> CCN(CC(=O)NCc1ccncc1)S(=O)(=O)c1cc(Cl)ccc1Cl
 : i	0.02
> COCCn1c(SCC(=O)NCc2ccc3c(c2)OCO3)nc2ccccc2c1=O
 : i	-1.2
> CC(=O)Nc1ccc(S(=O)(=O)N2CCN(S(=O)(=O)c3ccc(NC(C)=O)cc3)CC2)cc1
 : i	-0.09
> Cc1ccc(CNc2nc3ccc(C)cc3n3cnnc23)cc1
 : i	-2.5
> Cc1ccc2c(C(=O)CN3CCCC3)c(C)[nH]c2c1
 : i	-1.6
> CCN(CC)C(=O)Cn1cc(C(=O)C(=O)N2CCN(c3ccc(OC)cc3)CC2)c2ccccc21
 : i	-0.59
> CCNc1nc(Sc2ccc(C)cc2)cc(C(F)(F)F)n1
 : i	-0.84
> COC(=O)c1ccccc1Sc1c(/C=N/OCc2ccc(Cl)cc2)c(C(F)(F)F)nn1C
 : i	0.33
> CCc1c(C)nc(N2CCOCC2)[nH]c1=O
 : i	-1.2
> Cc1ccc(-c2ccc(C#N)c(=O)n2CC(=O)N(C)C)cc1
 : i	-0.81
> O=C(O)C1CCCCC1C(=O)NCCCCc1ccccc1 (configuration not stated)
 : i	-2.5
> CC(C)(C)NC(=O)CSc1nnc(C2CC2)n1-c1ccccc1
 : i	2.6
> CCCCCn1c(=O)c(-c2nc3ccccc3[nH]2)c(O)c2ccccc21
 : i	-0.02
> Cc1ccc(-c2c[n+](CC(=O)Nc3c(C)cccc3C)c3n2CCC3)cc1
 : i	1.3
> COc1cccc(CN(C)CC(O)COc2cc(Cl)ccc2Cl)c1 (configuration not stated)
 : i	-0.26
> O=C(N/N=C/c1cccnc1)c1cc(-c2ccccc2Cl)nc2ccccc12
 : i	0.97
> COc1ccc(C2C(C(=O)c3ccco3)=C(O)C(=O)N2c2nnc(C)s2)cc1 (configuration not stated)
 : i	9
> CCn1c2ccccc2c2nnc(SCC(=O)OCN3C(=O)c4ccccc4C3=O)nc21
 : i	-1
> CC(=O)c1cccc(NC(=O)Nc2ccc3c(c2)CCC3)c1
 : i	-3.2
> CCOc1cnn(Cc2ccccc2)c(=O)c1SCc1ccccc1
 : i	0.08

Complete entries as entered above. Order of values: KCNQ2 block, KCNQ2 block baseline
Record of C[C@H](NC(=O)c1nc[nH]c1C(=O)N[C@H](C)c1ccccc1)C(=O)OCc1ccccc1 → i, -0.86
Record of COCCOC(=O)C1=C(C)N=c2s/c(=C\c3cccs3)c(=O)n2C1c1cccs1 (configuration not stated) → i, 1.9
Record of CCOc1ccc(C2C(C(=O)O)CCC(=O)N2C2CCCCC2)cc1 (configuration not stated) → i, -0.56
Record of CN1CCc2c(n(CC(O)CN3CCN(CCO)CC3)c3ccccc23)C1=O (configuration not stated) → i, 0.07
Record of COC(=O)c1ccccc1Sc1c(/C=N/OCc2ccc(Cl)cc2)c(C(F)(F)F)nn1C → i, 0.33

Assay outcomes (PubChem BioAssay)

This is a subset; the hit share may differ from the screen's.
